miR-21 reporter: miR-21 reporter, rising signal. HeLa miR-21 FLuc reporter, luciferase, 48 h. Potency, µM (top dose mostly 38.3 µM), without a hit: top-dose reporter change, positive = more light. 340,000 tested, under 10 active; active = well fitted rising curve with a large enough effect; inconclusive = small, poorly fitted or top-dose-only effect; inactive = no such curve, though single readings can be large or run the other way;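 further: % of control where 0% means no effect; miR-21 action dims this reporter so a rising signal means less miR-21 action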
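HeLa cells endogenously expressing miR-21, stably carrying CMV-driven firefly luciferase with a downstream miR-21 binding site, 2000 cells/well. Titrations up to approximately 40 uM, 48 hours; luciferase luminescence read.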
Rango release inh: prevents RanGTP from dissociating the Rango-importin beta complex | O95149+P62826 | Biochemical FRET Rango-importin beta, RanGTP-induced dissociation | Potency, µM (titrated, usually from 46.1 µM), for the others: at the highest dose activity change, negative = inhibition | actives 0.071% (n = 340,000) | AID 540253; active means falling FRET ratio curve, often poorly fitted, with flat reads before Ran was added; inconclusive means other falling curves, or compound fluorescence or quenching; inactive means flat or rising ratio curve;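 further: potency means the concentration at half of the fitted maximal effect; % of control where 0% means no effect; nearly all actives have a fitted effect of over 45% in size; -100% = wells without RanGTP and RCC1; the record marks most hits as doubtful in a second field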
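Rango FRET biosensor (snurportin-1 IBB flanked by N-terminal EYFP and C-terminal CFP10) at 0.1 uM, with 0.25 uM importin beta in PBS, 1mM DTT, 0.02% Tween-20, 0.1% BSA. 0.6 uM Ran, 2mM GTP and 0.2 uM RCC1 were then added for 45 min at room temperature. Inhibition read as loss of FRET rise.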
GLA inh pH 4.5: blocks human alpha-galactosidase A at pH 4.5. purified enzyme, 4-MU-alpha-Gal fluorescence, pH 4.5. P06280. AID 1467. 230,000 tested, under 10 active. activity change, negative = inhibition, % at 105 µM; inconclusive = small, poorly fitted or top-dose-only inhibition, or a rising curve; inactive = flat fitted curve, though single readings scatter; no compound was filed as active;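 further: 0% = full activity with enzyme and -100% = basal without enzyme; dose as in the result columns while the protocol names 77 µM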
Rango-impB inh: prevents formation of the Rango-importin beta complex; Rango CFP/YFP FRET sensor + importin beta, 45 min; Potency, µM (series often up to 92.2 µM), for the others: at the top dose inhibition of complex formation; actives 0.031% (n = 340,000); active = rising FRET ratio curve, often small or poorly fitted; inconclusive = mostly compound fluorescence or quenching in the first reads; inactive = flat curves in all reads;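 further: potency means the concentration at half of the fitted maximal effect; 0% = DMSO wells and 100% = buffer wells lacking importin beta; nearly all actives have a fitted effect of over 15% in size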
Target sequence (Q14974 whole entry, looked up): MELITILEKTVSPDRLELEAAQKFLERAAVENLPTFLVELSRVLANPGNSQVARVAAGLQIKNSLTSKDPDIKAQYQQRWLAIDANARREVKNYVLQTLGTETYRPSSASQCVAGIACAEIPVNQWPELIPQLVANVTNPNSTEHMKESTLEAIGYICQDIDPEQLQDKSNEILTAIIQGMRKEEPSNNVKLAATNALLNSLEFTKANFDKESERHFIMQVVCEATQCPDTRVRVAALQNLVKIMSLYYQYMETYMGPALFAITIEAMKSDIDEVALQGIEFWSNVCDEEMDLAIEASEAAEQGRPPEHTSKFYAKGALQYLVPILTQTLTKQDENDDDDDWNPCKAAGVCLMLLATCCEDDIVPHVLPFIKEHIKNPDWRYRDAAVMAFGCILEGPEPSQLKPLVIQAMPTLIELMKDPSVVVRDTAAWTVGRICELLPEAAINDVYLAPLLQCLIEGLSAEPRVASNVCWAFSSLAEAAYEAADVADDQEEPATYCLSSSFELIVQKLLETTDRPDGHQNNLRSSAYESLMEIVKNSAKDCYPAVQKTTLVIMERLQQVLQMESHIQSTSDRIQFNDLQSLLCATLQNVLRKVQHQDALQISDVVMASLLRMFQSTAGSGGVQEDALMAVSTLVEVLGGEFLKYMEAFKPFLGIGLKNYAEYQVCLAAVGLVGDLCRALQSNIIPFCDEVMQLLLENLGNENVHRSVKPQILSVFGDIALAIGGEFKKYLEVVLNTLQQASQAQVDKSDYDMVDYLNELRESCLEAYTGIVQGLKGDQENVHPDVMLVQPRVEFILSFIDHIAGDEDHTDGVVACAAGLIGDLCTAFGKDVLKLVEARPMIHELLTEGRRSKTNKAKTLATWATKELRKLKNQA
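Inhibition scored from the CFP 486 nm/YFP 530 nm FRET ratio 45 min after adding 0.125 microM importin beta to 50 nM Rango biosensor preincubated 5 min with compound (room temperature, PBS with DTT, Tween-20, BSA). No-importin wells as positive control.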
* = called active by the depositor. An excerpt (hit frequency here may not be typical).

Screening COc1cccc(OC)c1OCCCOc1ccc([N+](=O)[O-])cc1Cl returned miR-21 reporter -7%, Rango release inh -13%, GLA inh pH 4.5 -5 and Rango-impB inh 1.3%.
Screening COc1cc(S(=O)(=O)Nc2cccc3cn[nH]c23)c(OC)cc1Cl returned miR-21 reporter -4%, Rango release inh -2% and Rango-impB inh 5.9%.
`Cn1c(=O)[nH]c(Nc2ccc(F)cc2)c([N+](=O)[O-])c1=O` gave miR-21 reporter -1%, Rango release inh 5%, GLA inh pH 4.5 -8 and Rango-impB inh 0.3%.
Screening CCOC(=O)CN1C(=O)/C(=C/c2ccccc2Br)Oc2ccccc21 returned miR-21 reporter 0%, Rango release inh 7% and Rango-impB inh -3.2%.
`COc1cc(C(=O)OCC(=O)NC(C)CCc2ccccc2)cc(OC)c1OC` (stereo not given) gave miR-21 reporter -1%, Rango release inh -13% and Rango-impB inh 3.7%.
`COc1ccccc1OCCCn1c(=O)oc2ccc(C)cc21` gave miR-21 reporter -34%, Rango release inh -6%, GLA inh pH 4.5 7 and Rango-impB inh -0.2%.
CC1CCCN(C(=O)COC(=O)c2cc(-c3cccs3)nn2-c2ccccc2)C1 (stereo not given) was read as Rango release inh -22% and Rango-impB inh -0.6%.
`O=C(CCNC(=O)c1ccccc1)OCC(=O)c1ccccc1` gave miR-21 reporter 0%, Rango release inh -14%, GLA inh pH 4.5 2 and Rango-impB inh 2.2%.
For COc1cc(NC(=O)CSc2nnc3c(C)cc4cc(C)cc(C)c4n23)c(C(=O)O)cc1OC the results were miR-21 reporter -2%, Rango release inh 18%, GLA inh pH 4.5 -1 and Rango-impB inh 0.2%.
`COc1cc2nc(C3CCC3)n(N)c(=O)c2cc1OC` gave miR-21 reporter 2%, Rango release inh -5% and Rango-impB inh 0.3%.
CCOc1nc2cnccc2n(CC(=O)Nc2c(F)c(F)cc(F)c2F)c1=O was read as miR-21 reporter -6%, Rango release inh 19% and Rango-impB inh -2.4%.
`CC(=O)N[C@H]1[C@H](OC2CCCCC2)O[C@H](COC(C)=O)[C@@H](OC(C)=O)[C@@H]1OC(C)=O` gave miR-21 reporter 1%, Rango release inh -9% and Rango-impB inh 4.3%.

Filtered by structure: the entries above containing an NH in an aromatic ring
Screening COc1cc(S(=O)(=O)Nc2cccc3cn[nH]c23)c(OC)cc1Cl returned miR-21 reporter -4%, Rango release inh -2% and Rango-impB inh 5.9%.
`Cn1c(=O)[nH]c(Nc2ccc(F)cc2)c([N+](=O)[O-])c1=O` gave miR-21 reporter -1%, Rango release inh 5%, GLA inh pH 4.5 -8 and Rango-impB inh 0.3%.

In the list so far, 2 have a Cl atom.
Screening COc1cccc(OC)c1OCCCOc1ccc([N+](=O)[O-])cc1Cl returned miR-21 reporter -7%, Rango release inh -13%, GLA inh pH 4.5 -5 and Rango-impB inh 1.3%.
Screening COc1cc(S(=O)(=O)Nc2cccc3cn[nH]c23)c(OC)cc1Cl returned miR-21 reporter -4%, Rango release inh -2% and Rango-impB inh 5.9%.

Further results:
Screening CC(=O)NC(c1cc(F)c2cccnc2c1O)C1CC1 (stereo not given) returned Rango release inh 3% and Rango-impB inh 0.0%.
For COc1cc(NC(=O)CN(C)Cc2ccc(OC(F)F)cc2)c(C)cc1[N+](=O)[O-] the results were miR-21 reporter -3%, Rango release inh 5%, GLA inh pH 4.5 -9 and Rango-impB inh -0.2%.
`O=C(C(=O)N1CCc2ccccc2C1)c1cn(CC(=O)N2CCCCC2)c2ccccc12` gave miR-21 reporter -5%, Rango release inh 0%, GLA inh pH 4.5 -10 and Rango-impB inh -2.8%.
`CC(=O)N1CCN(S(=O)(=O)c2ccc(S(=O)(=O)NCC(C)C)cc2)CC1` gave miR-21 reporter -4%, Rango release inh 5%, GLA inh pH 4.5 8 and Rango-impB inh 1.9%.
COc1ccccc1/C=C/C(=O)N1CCN(S(=O)(=O)c2cc(C)ccc2C)CC1 was read as Rango release inh 15% and Rango-impB inh -2.2%.
COC(=O)c1cc(CSC(=N)N)ccc1OCCC(C)C was read as miR-21 reporter 3%, Rango release inh -17%, GLA inh pH 4.5 2 and Rango-impB inh -2.0%.
`CN1CCN(c2ccc(S(=O)(=O)Nc3ccccc3)cc2[N+](=O)[O-])CC1` gave miR-21 reporter 3%, Rango release inh 1%, GLA inh pH 4.5 4 and Rango-impB inh -1.1%.
C[N+]1(C)CC2=Cc3ccccc3CC2C1 (stereo not given) was read as miR-21 reporter 1%, Rango release inh -16%, GLA inh pH 4.5 6 and Rango-impB inh 0.5%.
Screening CCC(CC)c1nnc(NC(=O)c2ccc3ccccc3n2)s1 returned miR-21 reporter -36%, Rango release inh -7%, GLA inh pH 4.5 8 and Rango-impB inh 0.2%.
CCN(CC)C(=O)C(C)N(C#N)c1nc(SC)nc(N(C)C)n1 (stereo not given) was read as miR-21 reporter -6%, Rango release inh 2%, GLA inh pH 4.5 6 and Rango-impB inh -1.2%.
For Cc1ccc(-c2nc(C#N)c(NCC3CCCO3)o2)cc1 (stereo not given) the results were miR-21 reporter -69%, Rango release inh -2%, GLA inh pH 4.5 5 and Rango-impB inh -2.8%.
CCOc1ccc(S(=O)(=O)NCCCn2ccnc2)cc1NC(C)=O was read as miR-21 reporter -2%, Rango release inh -17% and Rango-impB inh 0.5%.
`COc1ccc(N(C)C(=O)Nc2ccc3c(c2)nnn3C)cc1` gave miR-21 reporter -16%, Rango release inh -1%, GLA inh pH 4.5 0 and Rango-impB inh -2.2%.
Screening O=C(COC(=O)c1ccc(S(=O)(=O)NCc2ccco2)cc1)Nc1ccccc1 returned Rango release inh 7% and Rango-impB inh 3.0%.
CCN(CC)C(=O)OCc1c(-c2cccc(OC)c2)ncc2ccccc12 was read as Rango release inh 15% and Rango-impB inh 2.3%.
`Cc1nc(=O)c(-c2ccccc2)c(C)n1-c1cccc(C(=O)O)c1` gave miR-21 reporter -4%, Rango release inh 0%, GLA inh pH 4.5 -4 and Rango-impB inh -0.7%.
O=C1C(Cl)=C(N2CCCCC2)C(=O)N1c1ccccc1 was read as miR-21 reporter 0%, Rango release inh inconclusive, GLA inh pH 4.5 -2 and Rango-impB inh 7.1%.
`CC(C)(C)OC(=O)NCCCC[C@H](NC(=O)c1[nH]cnc1C(=O)Nc1ccc(Cl)cc1)C(=O)OC(C)(C)C` gave miR-21 reporter 5%, Rango release inh 8%, GLA inh pH 4.5 -11 and Rango-impB inh 2.8%.
Cc1cc(C)c(NC(=O)CN(C)CC(=O)N(C)CC(=O)Nc2c(Cl)cccc2Cl)c(C)c1 was read as Rango release inh -22% and Rango-impB inh -0.2%.
For COc1cccc(-c2nn(C)c3sc(C(=O)NCc4ccccn4)cc23)c1 the results were miR-21 reporter 3%, Rango release inh 0%, GLA inh pH 4.5 -11 and Rango-impB inh -0.6%.
`Cc1ccsc1/C=C1/SC(=O)N(CC(=O)N2CCOCC2)C1=O` gave miR-21 reporter -35%, Rango release inh 0%, GLA inh pH 4.5 -29 and Rango-impB inh -2.1%.
Screening Cc1ccc(NC(=O)/C(=C\c2ccc3c(c2)OCO3)NC(=O)c2ccco2)cc1 returned miR-21 reporter -6%, Rango release inh -4%, GLA inh pH 4.5 -1 and Rango-impB inh -5.0%.
For Cc1ccc(CS(=O)(=O)CC(C)(O)c2ccccc2)cc1 (stereo not given) the results were miR-21 reporter 0%, Rango release inh 15% and Rango-impB inh -0.4%.
CC(Oc1ccccc1)C(=O)OCC(=O)N1CC(=O)Nc2ccccc21 (stereo not given) was read as miR-21 reporter 2%, Rango release inh 0%, GLA inh pH 4.5 6 and Rango-impB inh 3.6%.
`CCOc1ccc(CN2CCN(Cc3cccn3-c3cccnc3)CC2CCO)cc1` (stereo not given) gave miR-21 reporter -2%, Rango release inh 9%, GLA inh pH 4.5 -6 and Rango-impB inh -3.1%.
Cc1ccc(C)c(/C=N/n2cc(-c3ccccc3)[nH]c2=S)c1 was read as miR-21 reporter 3%, Rango release inh 4%, GLA inh pH 4.5 6 and Rango-impB inh -3.0%.
For CCCCOC(=O)c1ccc(OC(=O)N2CCOCC2)cc1 the results were miR-21 reporter -28%, Rango release inh -8% and Rango-impB inh inconclusive.
For CC1Cc2ccccc2N1C(=O)CSc1nc2ccccc2n1CC(=O)N1CCOCC1 (stereo not given) the results were miR-21 reporter -2%, Rango release inh -6%, GLA inh pH 4.5 -6 and Rango-impB inh 3.1%.
For COc1ccc(C2C(C(=O)N3CCOCC3)CCC(=O)N2c2cc(OC)c(OC)c(OC)c2)cc1 (stereo not given) the results were miR-21 reporter -11%, Rango release inh 1%, GLA inh pH 4.5 -2 and Rango-impB inh 3.1%.
`CC(C)C(NS(=O)(=O)c1cccs1)C(=O)NCCN1CCN(c2ccccc2)CC1` (stereo not given) gave miR-21 reporter -3%, Rango release inh 11%, GLA inh pH 4.5 -16 and Rango-impB inh -1.1%.
`COc1ccc2cc(CN(CCc3ccccc3)Cc3nnnn3Cc3ccco3)c(=O)[nH]c2c1` gave miR-21 reporter -3%, Rango release inh 15µM*, GLA inh pH 4.5 -4 and Rango-impB inh inconclusive.
Fc1ccc(NCc2nnc3n2CCCCC3)cc1 was read as miR-21 reporter 0%, Rango release inh -9%, GLA inh pH 4.5 -3 and Rango-impB inh -0.2%.
For O=C(Nc1ccccc1)c1ccccc1NC(=O)C(F)(F)F the results were miR-21 reporter -24%, Rango release inh 2%, GLA inh pH 4.5 -19 and Rango-impB inh 9.5%.
C[C@@]12C(=O)Nc3ccc(F)cc3C(=O)N1[C@H]1c3cc(Cl)ccc3OC[C@@H]1[C@@H]2c1ccccc1 was read as Rango release inh -2% and Rango-impB inh 0.0%.
Screening COc1ccc(-c2ccc(SCC(=O)N3CCOCC3)nn2)cc1 returned miR-21 reporter -21%, Rango release inh 10%, GLA inh pH 4.5 3 and Rango-impB inh 7.2%.
For Cc1cc(C)n(-c2cc(N3CCN(C(=O)c4ccc(C(C)(C)C)cc4)CC3)ccc2[N+](=O)[O-])n1 the results were miR-21 reporter 10%, Rango release inh -6%, GLA inh pH 4.5 -27 and Rango-impB inh inconclusive.
`CC(=O)NC1C(=O)N(CCN2CCOCC2)c2ccc(F)cc21` (stereo not given) gave miR-21 reporter -1%, Rango release inh 6% and Rango-impB inh 2.3%.
Screening Cc1ccc(/C=N/NC(=O)c2ccoc2C)o1 returned miR-21 reporter -61%, Rango release inh 5%, GLA inh pH 4.5 -7 and Rango-impB inh -1.2%.
For CC[C@H]1c2[nH]c3ccc(C(C)C)cc3c2[C@@H]2CCN3C(=O)CCC[C@H]1[C@H]23 the results were Rango release inh inconclusive and Rango-impB inh inconclusive.
For CCn1c(COc2ccccc2C)nnc1SCc1nc2ccccc2c(=O)[nH]1 the results were miR-21 reporter -2% and GLA inh pH 4.5 -3.
For COc1ccccc1C1CCN(c2ccc([N+](=O)[O-])cn2)CC1 the results were miR-21 reporter -9%, Rango release inh -9%, GLA inh pH 4.5 -3 and Rango-impB inh -4.2%.
`COC(=O)c1ccc(/C=C2\SC(=S)N(CCCC(=O)NCCCN3CCOCC3)C2=O)cc1` gave miR-21 reporter 1%, Rango release inh -1% and Rango-impB inh inconclusive.
CC1CN(C(=O)COc2coc(CN3CCc4ccccc4C3)cc2=O)CC(C)O1 (stereo not given) was read as Rango release inh 45% and Rango-impB inh -0.1%.
Cc1ccc(NC(=O)c2ccc3c(c2)nnn3C)cc1 was read as miR-21 reporter -45%, Rango release inh -11%, GLA inh pH 4.5 -7 and Rango-impB inh -6.2%.
`Nc1nc(SCc2nc3sc4c(c3c(=O)[nH]2)CCCC4)n[nH]1` gave miR-21 reporter -56%, Rango release inh 5%, GLA inh pH 4.5 -17 and Rango-impB inh -2.4%.
O=C(CCNC(=O)c1ccco1)Nc1ccc(Cl)c(C(F)(F)F)c1 was read as miR-21 reporter 6%, Rango release inh -21% and Rango-impB inh -1.2%.
